Source: PubChem BioAssay (ICCB-Longwood Screening Facility, Harvard Medical School)
CapD inh – Bacillus anthracis CapD inhibitors, primary screen, biochemical, fluorescence intensity | 140,000 tested, 0.23% active | purified CapD enzyme, fluorescence intensity read-out; stronger effect = lower value; some hits fall short of the stated cut | CapD gamma-glutamyltranspeptidase (Bacillus anthracis Ames Ancestor) | z-score (concentration not given with the values) | AID 492967, 2010;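 active means z-score under -4 in either of two replicates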;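 further: stock transfer was 100 nL into about 40 µL; score is relative to mean and spread of the plate; one replicate is shown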
AID504770 – growth inhibition of E. coli YBA685, primary screen, V. cholerae RctB inhibitors. z-score (test concentration not listed). AID 504770, 2011. 130,000 tested, 0.27% active. E. coli YBA685 rctB-dependent plasmid, OD600 growth, 3 h; stronger effect = lower value;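 active means z-score under -2 on both plates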;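 further: wells of about 30 µL received 100 nL stock; score is relative to mean and SD of the test wells; the first replicate is given; strong numbers were not always called active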
* marks the source's active call; other numbers are inactive results; nt = no result given; & = joins results of further samples.

molecule | CapD inh | AID504770
COc1ccc(Oc2ccc(C(F)(F)F)c(NC(=O)C3CCC3C(=O)O)c2)cc1 (centres undefined) | 0.4 | -0.9
Nc1c(Cl)cnn(-c2ccccc2)c1=O | 0.075 | -0.1
N#CC1(c2ccccc2)CCc2c(sc3ncnc(N4CCOCC4)c23)C1 (centres undefined) | -0.7 | nt
C=CCNC(=O)C1CC2c3ccccc3C1c1ccccc12 (centres undefined) | -0.61 | nt
C=CCn1c(SCC(=O)Nc2cccc(OC)c2)nnc1C(C)NC(=O)c1ccccc1 (centres undefined) | 0.36 | 1.2
c1ccc(CSc2nnc(SCc3ccccn3)s2)nc1 | 0.14 | -1
CC1C(=O)C(C)C(c2cccs2)NC1c1cccs1 (centres undefined) | -0.29 | -0.95
CCCSC(=S)c1c(C)[nH]n(-c2ccc(C)cc2)c1=O | -1.3 | 1.1
COc1ccc(CCN(C)C2CCNCC2)cc1OC | nt | -0.5
CS(=O)(=O)c1ccc2nc(NC(=O)C3CCCC3)sc2c1 | nt | 1.4

Following part.
molecule | CapD inh | AID504770
CCC1C2=C(CC(C)(C)CC2=O)Nc2c1c(C)nn2-c1ccccc1 (centres undefined) | 14 | 0.4
Cc1ccc(C)c(Cn2c(=O)n(CCCC(=O)NCc3ccccc3Cl)c(=O)c3ccccc32)c1 | -0.52 | -0.5
CSc1ncnc2c1cnn2-c1ccccc1 | nt | 0.5
O=C(OCC(=O)c1cc2c3c(c1)CC(=O)N3CCC2)C1=COCCO1 | nt | -1.4
Cc1c(C(=O)N(C)Cc2ccccc2)sc2nc3n(c(=O)c12)CCCC3 | -0.38 | 0.55
CCOC(=O)C1=C(C)N=c2s/c(=C\c3ccc(OC)cc3OC)c(=O)n2C1c1ccc(OC)c(OC)c1 (centres undefined) | -0.13 | nt
Cc1cc(-n2nc(C)cc2C)nc(-n2nc(C)cc2C)n1 | 0.045 | nt
FC(F)(F)c1cc(-c2cn3ccccc3n2)cc(C(F)(F)F)c1 | 60 | -0.25
Cc1cc(=O)oc2cc(NC(=O)c3ccc(OC(F)F)cc3)ccc12 | nt | -0.7
COc1ccccc1N1CCN(C(=O)CN(c2cc(Cl)ccc2OC)S(=O)(=O)c2ccc(C)cc2)CC1 | 0.09 | nt

Additional compounds:
molecule | CapD inh | AID504770
Cc1ccc2c(c1)N(CCO)/C(=C/c1sc3ccccc3[n+]1C)S2 | -0.39 | -0.25
O=C(Cn1[nH]c(=O)c2ccccc2c1=O)NCCCN1CCCC1=O | nt | 0.55
OC(c1nc2ccccc2[nH]1)C(O)C(O)C(O)c1nc2ccccc2[nH]1 (centres undefined) | 0.62 | -0.5
Cc1ccc(C)c(N2CCN(c3ncnc4onc(-c5ccc(F)cc5)c34)CC2)c1 | 0.065 | 0.85
COc1ccccc1N1CCN(C(=O)CN(c2ccc(Br)cc2)S(=O)(=O)c2ccccc2)CC1 | -0.24 | nt
CN(Cc1ccccc1)C(=O)Cn1ncc2c3ccccc3n(Cc3ccccc3F)c2c1=O | 0.69 | 1.8
Cc1ccc(C2C3=C(CCCC3=O)N=C3c4ccccc4C(=O)C32)cc1 (centres undefined) | 0.28 | nt
Cc1cc(Cl)ccc1OCC(=O)N/N=C/c1ccccc1C(=O)O | 0.74 | nt
Cc1ccc(S(=O)(=O)N2CCC[C@H]2C(=O)OCC(=O)N2c3ccccc3NC(=O)C2(C)C)cc1 | nt | 0.1
CCN(c1ccccc1)c1nc2ccccc2n2nnnc12 | -1.7 | 0.1

Next part
molecule | CapD inh | AID504770
CC1=NN(c2ccccc2)C(=O)C1(C)N (centres undefined) | 0.18 | 0.95
CC(C)Cn1ccc(=O)n(CC(C)C)c1=O | 0.72 | 0.6
CCOC(=O)C1=C(C)N=c2s/c(=C\c3cc4c(cc3Br)OCO4)c(=O)n2C1c1ccc(OC)cc1 (centres undefined) | -0.18 | nt
CCOC(=O)C1CCN(c2nc3ccccc3nc2C(C#N)C(=O)NCCc2ccc(OC)c(OC)c2)CC1 (centres undefined) | nt | -0.35
C/C(=N\NC(=O)c1ccco1)c1ccc(C)o1 | nt | -1.1
CCCSc1nc(C)c(CC(=O)O)c(=O)[nH]1 | nt | -0.75
CN1C(=O)NC(=O)/C(=C/c2ccc(N(C)C)cc2)C1=O | 0.3 | -0.05
CCCOc1ccc(C2C(C(=O)OCC)=CN(Cc3ccc(F)cc3)C=C2C(=O)OCC)cc1OC | 58 | nt
O=C(NCCCO)Nc1ccc2nc(-c3ccco3)c(-c3ccco3)nc2c1 | -7.3* | 1.5
NC(=O)NC(=O)C[n+]1ccc(/C=N/O)cc1 | -0.12 | -1.1

Following part.
molecule | CapD inh | AID504770
CCOc1cc(/C=C2\SC(=S)N(C(C)C(=O)O)C2=O)ccc1O (centres undefined) | -2.6 | -0.45
Nc1nc(-c2ccc3c(c2)OCCCO3)cc(C(F)(F)F)n1 | 9.8 | -0.05
NNC(=O)c1ccc(CSc2n[nH]c(=O)[nH]c2=O)cc1 | nt | -0.15
Cc1cn2c3ccccc3nc2n1CCCO | -1.3 | 2
CCOC(=O)C1CC(O)CN1 (centres undefined) | nt | 0.55
COc1ccccc1/C=N/NC1=NCCCCC1 | nt | -1.2
C=CCN(CC=C)C(=O)c1ccc(C)s1 | -0.24 | -0.7
COc1ccccc1NC(=S)NCCc1ccc(OC)c(OC)c1 | 0.7 | nt
CCOc1ccccc1CN1CCN(C)CC1 | -0.45 | 2.2
O=[N+]([O-])c1ccc(OC/C=C2/Oc3ccc([N+](=O)[O-])cc3C2N2CCOCC2)cc1 (centres undefined) | 49 | nt

Continuation:
molecule | CapD inh | AID504770
O=C(O)c1cc(-c2ccco2)nc2ccc(Br)cc12 | 37 | 2
CCn1ccc(C(=O)Nc2sc(C(=O)OC)c(C)c2C(=O)OC)n1 | nt | 0.25
CN(C)CCN1CC(C(=O)O)CC1=O (centres undefined) | nt | 1.2
Cc1c(C)n(C)c2ccc(C(=O)O)cc12 | nt | 0.5
Cc1ccc(NCc2ccc(O)c3ncccc23)cc1 | -2 | -0.35
Cc1cc(C(=O)CN2CCCC2)c(C)n1-c1ccc(F)cc1 | nt | -1.1
CCN1CCN(C(=O)C2=CC(c3ccc(OC)cc3)=NS(=O)(=O)N2C)CC1 | -2.3 | 0.5
Cc1ccc(N=c2ssc3c2-c2cc(C)cc(C)c2NC3(C)C)cc1 | -0.24 | nt
C=CCn1c(CCNC(=O)C(C)(C)C)nc2ccccc21 | -0.45 | 0.35
O=C(Nc1ccccc1C(=O)N/N=C/c1c[nH]c2cnc(OCc3ccccc3)cc12)c1cccs1 | 2.8 | nt

The list goes on:
molecule | CapD inh | AID504770
Cc1onc(-c2ccccc2)c1C(=O)NCCSCc1ccco1 | nt | -0.5
Cc1nc2ccccn2c1-c1ccnc(SCC(=O)c2ccc(Cl)cc2)n1 | 49 | -0.8
Cc1cc(C)cc(N/C=C(\C#N)S(=O)(=O)Cc2ccc(Cl)cc2)c1 | 0.13 | 0.1
COc1ccccc1NC(=O)Cc1nc(CSc2nc(C)cs2)cs1 | nt | 1.6
CCOC(=O)C(c1ccccc1)C(Nc1ccc(Cl)c(Cl)c1)c1ccccn1 (centres undefined) | 0.64 | nt
CC(=O)Nc1sc(C)c(C)c1C(=O)OCC(=O)c1cc(C)n(-c2ccc3c(c2)OCCO3)c1C | nt | -0.05
CCn1cc(C(=O)O)c(=O)c2cc(F)c(N3CCNCC3)cc21 | 0.24&-0.32 | -4.7*
CCn1c(SCc2ccc(Br)cc2)nnc1-c1ccncc1 | -0.59 | -0.35
CN(C)c1cccc2cccc(N(C)C)c12 | -0.02 | nt
Cc1cc(C2C(C#N)=C(N)N(c3cccc(C(F)(F)F)c3)C3=C2C(=O)CCC3)c(C)s1 (centres undefined) | 0.17 | nt

Next part
molecule | CapD inh | AID504770
CCCCOc1ccc(C(=O)On2c(C)nc3ccccc3c2=O)cc1 | 0.42 | nt
COC(=O)NC(=S)Nc1ccc(Oc2ccc(Cl)cc2Cl)cc1 | 55 | 0.6
Cc1[nH]c2ccccc2c1C(Nc1ccccc1)c1ccccn1 (centres undefined) | -0.45 | 1
O=C(Nc1ccccc1)c1ccccc1SCC(=O)N1CCCC1 | nt | 0
O=c1[nH]nc(SCc2ccccc2)c(=S)[nH]1 | -1.3 | -0.25
Cc1nn(-c2ccc(F)cc2)c(Cl)c1/C=C/C(=O)N1CCNC(=O)C1 | nt | 0.65
O=C(NCCN1CCOCC1)c1cc(-c2ccccc2)nc2ccccc12 | 13&7.8 | nt
CCOC(=O)C(C)Sc1nc2c([nH]c3ccccc32)c(=O)n1-c1ccc(Cl)cc1 (centres undefined) | -0.27 | -0.05
O=C(c1ccc2c(c1)CCO2)N1CCN(C(c2ccccc2)c2ccccc2)CC1 | 0.89 | 0.2
O=C1C=CC(=O)N1c1ccc(-c2ccccc2)cc1 | -0.71 | 0.25

Continuation:
molecule | CapD inh | AID504770
CCN1C(=O)c2ccccc2S(=O)(=O)c2ccc(C(=O)NCCCN3CCCCCC3)cc21 | 0.22 | -0.8
Brc1cc(Br)c2nc(-c3nccs3)ccc2c1 | -0.12 | -0.8
CCOC(=O)C1C(=O)OC2(CCCC2)C1C(=O)OCC (centres undefined) | 0.17 | 1.2
COC(=O)c1c(C)nsc1NC(=O)Oc1ccccc1 | nt | -1.5
CC(Sc1nncn1C)C(=O)NCCC1=CCCCC1 (centres undefined) | nt | -0.45
CC(=O)Nc1nc(C)c(Oc2ccc(Cl)cc2Cl)c(=O)[nH]1 | -0.09 | -0.4
CC(C)C(=O)Nc1nnc(SCc2cccc(F)c2)s1 | 0.88 | -0.25
O=C([O-])C[n+]1cn(CC(=O)O)c2ccccc21 | -0.42 | -0.4
N#CC(C#N)=C(C#N)c1cc2c([nH]1)CCCC2 | nt | 2.1
CNC(=O)COC(=O)c1ccc(NC(=O)CC#N)cc1 | nt | -0.35

Continuation.
molecule | CapD inh | AID504770
C#CCSc1nc(C(OC)OC)cc(=O)[nH]1 | 0.05 | 1.7
CCn1c(CNC(=O)COC)nc2ccccc21 | -0.58 | -0.8
O=C(CC1(O)OC(c2ccc(Cl)cc2)=CC1=O)c1ccc(Cl)cc1 (centres undefined) | -0.48 | -0.8
CC1CN(c2ccc(NC(=S)NN)cc2)CC(C)O1 (centres undefined) | -1.3 | 1.7
CCCN(CCC)C(=O)Cc1c(C)nc2c(-c3ccccc3)c(C)nn2c1C | -2.3 | 1
O=C(CN1CCN(c2ccccc2)CC1)NC(=O)Nc1ccc2c(c1)OCCO2 | nt | 0.25
Cc1sc2ncnc(Oc3ccc(Cl)cc3Cl)c2c1C | -0.61 | 1.8
CCOC(=O)c1c(N2C(=O)CCC2=O)sc2c1CCCC2 | 1.7 | 0.9
CSc1sc(C(=O)NNC(=O)c2ccc(C(F)(F)F)cc2)c2c1C1(CCC2)SCCS1 | -1.5 | nt
CCOC(=O)c1cnc2ccccc2c1Nc1ccc(C(=O)OC)cc1 | 0.17 | nt

The listing continues.
molecule | CapD inh | AID504770
CCCCn1c(=N)n(CC(=O)OC)c2ccccc21 | -0.38 | -1.1
O=S(=O)(Cc1noc(-c2ccc(C(F)(F)F)cc2)n1)c1ccc(Cl)cc1 | -0.66 | 1.9
Cc1ccccc1-n1nc2c(c1NC(=O)c1ccc(S(=O)(=O)N3CCCCC3)cc1)CSC2 | -0.28 | nt
COc1ccc(N2CC(NC(=O)N3CCCC3)CC2=O)cc1 (centres undefined) | nt | -0.6
Cc1ccc(/C=N/N(C)S(=O)(=O)c2ccc(C)cc2)cc1 | 38 | -0.4
Cc1cc(C)cc(N2C(=O)C=CC2=O)c1 | -0.065 | -1.1
C=CCn1c(SCc2nnc(SCc3ccc(F)cc3)n2C)nnc1-c1ccccc1 | 0.5 | -0.2
O=C(c1ccco1)N(NC(=O)C(O)(c1ccccc1)c1ccccc1)c1cccc(Cl)c1 | -0.3 | nt
CCNc1nc(NC(C)C)nc(OCCNC(=O)Nc2ccc(Cl)cc2)n1 | -1.1 | 0.35
O=C1NN(c2ccc(Cl)c(Cl)c2)C(=O)/C1=C/C=C/c1ccco1 | -0.61 | 2

Going on with the list.
molecule | CapD inh | AID504770
COC(=O)C(F)c1nc2ccccc2c(=O)[nH]1 (centres undefined) | nt | -0.1
CCOC(=O)C1CCN(C(=O)c2cccnc2Oc2ccccc2)CC1 | 0.52 | -0.15
CC(C)n1[nH]c(=O)c2c1NC(=O)CSC21CCCCC1 | nt | 0.25
COc1ccc(S(=O)(=O)N2CCC(c3nc4ccccc4s3)CC2)cc1 | -0.11 | nt
CC(C)CCNC(=O)c1nnc(-c2ccccc2)o1 | -1.3 | 1.8
COc1ccc(-c2nnc(SCC#N)o2)cc1 | nt | -0.35
COc1ccc(-c2c(C(F)(F)F)oc3cc(OC(=O)c4ccco4)ccc3c2=O)cc1OC | -0.15 | nt
O=C(NNc1ccccc1C(F)(F)F)C1CCCC1 | nt | 0.25
COCCn1c(SCC(=O)Nc2ccccc2)nc2ccccc21 | nt | -0.8
CN(C)/C=c1\s/c(=C/C(=O)c2cccs2)[nH]c1=O | -3.5 | 0.6

As a short view, 6 of the compounds above.
molecule | CapD inh | AID504770
CC(C)CCNC(=O)c1nnc(-c2ccccc2)o1 | -1.3 | 1.8
COc1ccc(-c2nnc(SCC#N)o2)cc1 | nt | -0.35
COc1ccc(-c2c(C(F)(F)F)oc3cc(OC(=O)c4ccco4)ccc3c2=O)cc1OC | -0.15 | nt
O=C(NNc1ccccc1C(F)(F)F)C1CCCC1 | nt | 0.25
COCCn1c(SCC(=O)Nc2ccccc2)nc2ccccc21 | nt | -0.8
CN(C)/C=c1\s/c(=C/C(=O)c2cccs2)[nH]c1=O | -3.5 | 0.6

(continued)
molecule | CapD inh | AID504770
CCOC(=O)c1sc(SC)c2c1-c1ccccc1N(C)S2(=O)=O | 1.3 | nt
NC1CCC(c2ccccc2)CC1 (centres undefined) | nt | -1.2
Cc1ccc(/C=C/C(=O)O)cc1S(=O)(=O)N1CCC(C(=O)O)CC1 | 0.17 | 0.8
CC1=Nc2ccc(C)cc2/C1=C\c1c(N)n2nc(N3CCOCC3)sc2nc1=O | -0.11 | 0
